miR-21 FLuc: miR-21 reporter, rising signal. HeLa miR-21 FLuc reporter, luciferase, 48 h. Potency, µM (titrated, usually from 38.3 µM), for inactives: at the highest dose reporter change, positive = more light. 340,000 tested, under 10 active. AID 2288; active = well fitted rising curve with a large enough effect; inconclusive = small, poorly fitted or top-dose-only effect; inactive = no such curve, though single readings can be large or run the other way;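 note: % of control where 0% means no effect; miR-21 action dims this reporter so a rising signal means less miR-21 action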
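Using DMEM plus 10% FBS, HeLa miR-21-FLuc cells are incubated with test compounds (final up to about 40uM) for 48 hours; firefly luciferase signal is then imaged following reagent-mediated lysis.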
Rango-impB inh: prevents formation of the Rango-importin beta complex. Q14974. Rango CFP/YFP FRET sensor + importin beta, 45 min. Potency, µM (top dose mostly 92.2 µM), without a hit: at the top dose inhibition of complex formation. hit rate 0.031% among 340,000. AID 540263; active = rising FRET ratio curve, often small or poorly fitted; inconclusive = mostly compound fluorescence or quenching in the first reads; inactive = flat curves in all reads;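 note: potency is the fitted concentration of half-maximal effect; 0% = DMSO wells and 100% = buffer wells lacking importin beta; nearly all actives have a fitted effect of over 15% in size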
Target sequence (Q14974 whole entry, looked up): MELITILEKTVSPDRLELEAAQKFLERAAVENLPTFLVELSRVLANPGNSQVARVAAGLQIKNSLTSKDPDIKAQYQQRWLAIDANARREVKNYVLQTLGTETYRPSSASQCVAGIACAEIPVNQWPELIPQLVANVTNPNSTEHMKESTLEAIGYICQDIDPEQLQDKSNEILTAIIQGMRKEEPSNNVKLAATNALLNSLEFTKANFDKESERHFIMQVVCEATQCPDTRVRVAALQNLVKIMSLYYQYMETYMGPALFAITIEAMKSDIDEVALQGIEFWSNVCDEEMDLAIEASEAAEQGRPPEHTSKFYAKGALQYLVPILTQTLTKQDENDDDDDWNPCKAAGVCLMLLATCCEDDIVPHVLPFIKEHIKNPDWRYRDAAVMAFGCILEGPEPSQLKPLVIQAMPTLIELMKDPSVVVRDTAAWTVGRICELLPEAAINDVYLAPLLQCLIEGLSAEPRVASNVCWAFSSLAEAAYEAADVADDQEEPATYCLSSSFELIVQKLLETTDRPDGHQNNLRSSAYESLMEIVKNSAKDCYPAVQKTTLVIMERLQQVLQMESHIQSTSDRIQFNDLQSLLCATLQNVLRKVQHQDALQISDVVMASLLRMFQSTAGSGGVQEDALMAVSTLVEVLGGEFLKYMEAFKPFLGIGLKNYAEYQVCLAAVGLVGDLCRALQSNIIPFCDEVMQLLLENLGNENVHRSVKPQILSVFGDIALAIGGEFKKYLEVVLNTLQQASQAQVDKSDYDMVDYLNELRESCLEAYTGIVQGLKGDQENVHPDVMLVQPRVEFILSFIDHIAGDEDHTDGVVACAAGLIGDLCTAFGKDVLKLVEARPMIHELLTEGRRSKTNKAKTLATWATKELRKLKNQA
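FRET biosensor (snurportin 1 IBB flanked by EYFP and cerulean), 50 nM, with compound 5 min, then 0.125 microM importin beta in PBS, 1 mM DTT, 0.02% Tween-20, 0.1% BSA. CFP/YFP ratio read after 45 min at room temperature; pre-read flags interference.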
Rango release inh: inhibition of RanGTP-driven Rango-importin beta dissociation | AID 540253 | hit rate 0.071% among 340,000 | Potency, µM (series often up to 46.1 µM), inactives show top-dose activity change, negative = inhibition | Biochemical FRET Rango-importin beta, RanGTP-induced dissociation | O95149+P62826; active means falling FRET ratio curve, often poorly fitted, with flat reads before Ran was added; inconclusive means other falling curves, or compound fluorescence or quenching; inactive means flat or rising ratio curve;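 note: potency is the fitted concentration of half-maximal effect; % of control where 0% means no effect; nearly all actives have a fitted effect of over 45% in size; -100% = wells without RanGTP and RCC1; the record marks most hits as doubtful in a second field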
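Recombinant Rango FRET biosensor (EYFP–snurportin 1 IBB–cerulean CFP10) at 0.1 uM premixed with 0.25 uM importin beta in PBS, 1 mM DTT, 0.02% Tween-20, 0.1% BSA. Compound added 5 min; RanGTP-RCC1 (0.6 uM Ran, 2 mM GTP, 0.2 uM RCC1) then triggers release, read at 45 min.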
GLA inh pH 4.5: inhibitors of human alpha-galactosidase A at pH 4.5. P06280. purified enzyme, 4-MU-alpha-Gal fluorescence, pH 4.5. activity change, negative = inhibition, % at 105 µM. 230,000 tested, under 10 active; inconclusive = small, poorly fitted or top-dose-only inhibition, or a rising curve; inactive = flat fitted curve, though single readings scatter; no compound was filed as active;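 note: 0% = full activity with enzyme and -100% = basal without enzyme; dose as in the result columns while the protocol names 77 µM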
Numbers without * were called inactive; ? = inconclusive; / = not tested or not shown; & = joins results of further samples. Some of the compounds tested (hit frequency here may not be typical).

SMILES | miR-21 FLuc | Rango-impB inh | Rango release inh | GLA inh pH 4.5
Cc1ccc(C(=O)N/C(=C\c2cccs2)C(=O)NCCCN2CCOCC2)cc1 | -0.5% | -0.4% | 15.2% | /
Cc1cc2c(cc1S(=O)(=O)NCc1ccccc1)OCC(=O)N2 | -3.1%&-0.9% | -2.4% | -27.1% | /
S=C(NC1CCCCC1)NC1CC2C=CC1C2 (configuration not stated) | -12.7% | 0.4% | 1.9% | -0.4
CN(Cc1ccccc1)C(=O)c1cccc(NC(=O)Cc2ccc(NC(=O)C3CCCN(C(=O)C4CCC4)C3)cc2)c1 (configuration not stated) | / | 0.2% | 0.2% | /
Cc1ccc2c(COC(=O)C3=COCCO3)cc(=O)oc2c1 | -45.8% | 0.1% | 33.6% | -3.8
COc1ccc(CNc2nc3c(c(=O)[nH]c(=O)n3C)n2Cc2ccccc2C)cc1 | -9.5% | -2.1% | -13.5% | -8.5
CCc1nc(SCC(=O)NC2CCCC2)c2c(=O)n(C)c(=O)n(C)c2n1 | 3.4% | 0.4% | 1.9% | /
CC(Oc1ccc(Cl)cc1Cl)C(=O)NC(=S)N1CCc2ccccc21 (configuration not stated) | 3.0% | -14.0% | 5.1% | -3.0
Cc1c(C(c2cccs2)c2c(C)n(C)n(-c3ccccc3)c2=O)c(=O)n(-c2ccccc2)n1C | -5.8% | 1.6% | -4.8% | -12.7
Cc1nnc(SCc2cccc([N+](=O)[O-])c2)[nH]c1=O | 0.3% | 8.4% | 0.5% | -14.4
Cc1ccc2c(cnn2C(=O)CCCC(=O)NCc2ccc(Cl)cc2)c1 | -5.2% | -2.4% | 9.0% | /
O=C(Nc1cc(Cl)ccc1-n1cncn1)c1cc(S(=O)(=O)N2CCOCC2)ccc1F | -5.5% | -4.5% | -0.1% | /
O=C(Nc1ccccc1)c1nc2ccccc2s1 | -11.2% | -2.7% | 2.3% | -0.6
COc1cc(/C=C/C(=O)NCCn2c(C)cc3ccccc32)cc(OC)c1OC | 0.5% | ? | ? | -5.9
COc1cc(OC)cc(C2=NCCN2)c1 | -3.4% | 6.6% | 9.3% | -4.8
Cc1ccc(-c2nn(CC(=O)NCc3ccco3)c(=O)c3ccccc23)cc1 | 0.0% | -2.4% | 2.7% | 0.5
COc1ccc(NS(=O)(=O)c2ccc(N3CCOCC3)c(NC(=O)c3ccccc3Br)c2)cc1 | -5.9% | -1.9% | -5.3% | -8.1
NC(=O)c1ccc[n+](CC(=O)NCc2ccc(Cl)cc2)c1 | 0.6% | -4.0% | 1.4% | /
CCc1nnc(NC(=O)Cc2sc(C)nc2-c2ccc(C)cc2)s1 | -3.4% | 1.2% | 2.2% | 0.2
COc1ccc(-c2nnc(SCc3ccccn3)n2C)cc1 | -39.4% | 0.1% | -7.3% | -1.7

Whole records from above. Screens in order: miR-21 FLuc | Rango-impB inh | Rango release inh | GLA inh pH 4.5
Cc1ccc2c(COC(=O)C3=COCCO3)cc(=O)oc2c1 in the list: -45.8% | 0.1% | 33.6% | -3.8
Cc1cc2c(cc1S(=O)(=O)NCc1ccccc1)OCC(=O)N2 in the list: -3.1%&-0.9% | -2.4% | -27.1% | /
Cc1c(C(c2cccs2)c2c(C)n(C)n(-c3ccccc3)c2=O)c(=O)n(-c2ccccc2)n1C in the list: -5.8% | 1.6% | -4.8% | -12.7
COc1cc(/C=C/C(=O)NCCn2c(C)cc3ccccc32)cc(OC)c1OC in the list: 0.5% | ? | ? | -5.9
Cc1ccc(-c2nn(CC(=O)NCc3ccco3)c(=O)c3ccccc23)cc1 in the list: 0.0% | -2.4% | 2.7% | 0.5

Following part.
SMILES | miR-21 FLuc | Rango-impB inh | Rango release inh | GLA inh pH 4.5
CC1(C)C2CCC1(C)C(OC(=O)C[n+]1ccccc1N)C2 (configuration not stated) | -1.3% | 6.0% | 43.7% | 5.4
Clc1ccc(C2NCCc3sccc32)cc1 (configuration not stated) | -4.2% | 4.8% | 6.1% | -2.2
COc1ccc(S(=O)(=O)N2CCN(C(=O)CCCN3C(=O)NC4(CCCC4)C3=O)CC2)cc1 | / | 0.2% | -14.7% | /
CCN(CC)S(=O)(=O)c1ccc(OC)c(NC(=O)COc2ccc3c(C)cc(=O)oc3c2)c1 | -5.6% | -4.2% | -5.0% | -2.9
COc1ccc(NC(=O)C#Cc2ccccc2)cc1OC | 8.2% | -1.1% | 6.1% | /
CCCOc1ccc(/C(O)=C2/C(=O)C(=O)N(CCCn3ccnc3)C2c2ccc(C)o2)cc1 (configuration not stated) | -7.8% | 2.2% | -15.1% | -1.3
COc1cnc(-c2ccccn2)nc1Oc1ccccc1 | 7.7% | 0.4% | -11.3% | -28.3
C=CCOc1ccc(-c2nc3c(c(=O)[nH]c(=O)n3CCC)n2CCCC)cc1 | 5.1% | -5.4% | 20.1% | /
Cc1ccc(/C(O)=C2\C(=O)C(=O)N(CC(C)O)C2c2ccccn2)cc1 (configuration not stated) | -8.0% | -1.1% | 25.6% | 2.0
O=C(Nc1ccc(Cl)cc1)c1ccc(-c2ccccn2)s1 | -64.2% | -4.9% | -10.6% | 3.7
Cn1cc(C(=O)N/N=C/c2cccc([N+](=O)[O-])c2)c2ccccc21 | -4.7% | 0.7% | -1.3% | -1.7
CCOC(=O)c1c(NC(=O)CSc2nnc(C)s2)sc2c1CCC(CC)C2 (configuration not stated) | 0.5% | 4.3% | 1.6% | -28.6
O=C(Nc1cc(C(F)(F)F)ccc1-n1cncn1)c1cn2ccccc2n1 | / | -3.3% | -11.0% | /
Cc1ccc(CNC(=O)N2CCN(c3ccc(C)cc3)CC2)cc1 | -5.2% | -4.4% | -8.9% | /
COc1ccc(Cl)cc1S(=O)(=O)N1CCC(C(=O)NC2CC2)CC1 | -1.2% | 3.1% | -11.1% | /
O=C(Sc1ccccc1)c1cccc(Cn2cc(C(F)(F)F)ccc2=O)c1 | 7.3% | -0.3% | 12.7% | 1.6
O=C(COc1cc(F)ccc1[N+](=O)[O-])NCC1CCCO1 (configuration not stated) | / | 3.9% | -14.8% | /
NC(=O)Cc1ccc2sc(-c3ccccc3)nc2c1 | -41.1% | ? | ? | 2.5
COc1cccc(CC(NC(C)=O)C(=O)NC2CCN(C(=O)C3CC3)CC2)c1OC (configuration not stated) | 4.3% | -0.2% | -0.6% | 3.9
O=C(COc1ccc(Cl)cc1)Nc1cccc(S(=O)(=O)NCc2ccco2)c1 | / | -1.2% | 7.6% | /
O=C(CN1CCCCCC1)Nc1nc2ccccc2s1 | / | -4.1% | -11.0% | /
CSc1nc(NS(=O)(=O)c2cc(C)c(Cl)cc2Cl)nn1C | -2.2% | -2.8% | -18.3% | /
COC(=O)[C@@H](Cc1ccc(O)cc1)NC(=O)[C@H]1CCC(=O)N1C(=O)OCc1ccccc1 | -0.7% | 1.4% | -0.3% | /
O=C(CCn1nnc2ccccc21)NNC(=O)C1CCCCC1 | -0.4% | -2.3% | -10.8% | 7.1
Cc1ccc2c(C)c(C(=O)N3CCN(c4ncccn4)CC3)oc2c1C | -7.1% | 2.0% | -18.8% | /
Cc1cc(Sc2nc(NC(C)C)nc(NC(C)C)n2)nc(Cl)n1 | 0.1% | -0.7% | 0.4% | -6.2
CCN(CC(=O)NC1CCS(=O)(=O)C1)C(=O)c1ccc(S(=O)(=O)N(CC)CC)cc1 (configuration not stated) | / | 0.1% | -1.8% | /
Cc1ccc[n+](CC(=O)N2CCCCC2)c1C | 5.1% | -1.8% | -10.2% | 1.8
CCC1Sc2ccccc2N(CC(=O)NCc2ccc3c(c2)OCO3)C1=O (configuration not stated) | -2.3% | -4.9% | -2.1% | -4.1
O=C(OCC(=O)N1CCN(S(=O)(=O)c2ccc(Cl)cc2)CC1)c1ccc([N+](=O)[O-])o1 | 0.6% | -2.5% | 3.0% | -12.2
CCCC(=O)Nc1nnc(-c2ccco2)s1 | -23.4% | 1.1% | -13.1% | 4.1
O=C(Cc1ccc([N+](=O)[O-])cc1)NCC1CCCO1 (configuration not stated) | -3.6% | 1.6% | 1.4% | 0.4
COc1cc(NC(=O)Cn2ncc(Cl)c(Cl)c2=O)c(C)cc1[N+](=O)[O-] | ? | ? | 0.4% | -2.6
COCCCNC(=S)N/N=C/c1ccccc1O | -27.5% | ? | -26.0% | 0.7
COc1ccc(/C(C)=N\NS(C)(=O)=O)c(OC)c1 | -31.4% | 0.3% | 0.3% | 10.0
Cc1cc(-c2cccs2)n[nH]1 | -13.6% | -0.5% | -1.4% | -3.4
COCCN(C(=O)CCC(=O)Nc1ccccn1)C(C(=O)NCCC(C)C)c1ccc(C)cc1 (configuration not stated) | 1.1% | -5.2% | -11.6% | /
CC1CCN(c2cc(N)c(Cl)cc2[N+](=O)[O-])CC1 | -26.4% | -1.1% | -13.5% | -4.8
O=C(NC1CC(=O)N(c2ccc(F)cc2)C1)C(=O)c1c[nH]c2ccccc12 (configuration not stated) | / | 1.2% | -1.0% | /
O=[N+]([O-])c1ccc(C2CCCC/C2=N/OCc2ccc(F)cc2)c([N+](=O)[O-])c1 (configuration not stated) | 5.0% | 2.3% | -7.7% | -15.7
CCN1CCN(c2c(Cl)cccc2NC(=O)c2ccc3c(c2)OCCO3)CC1 | -2.4% | ? | ? | 4.5
O=C(Nc1ccc(S(=O)(=O)NCc2ccco2)cc1)c1ccncc1 | -1.0% | ? | 5.8% | -4.6
NC1=NN=C(N2N=C(c3ccccc3)CC2(O)C(F)(F)F)n2ncnc2C1 (configuration not stated) | -1.9% | 1.6% | 0.8% | -8.0
COc1cc(/C=N/Nc2ccc(Cl)c(C(=O)O)c2)ccc1OC(=O)c1ccccc1F | -43.9% | 0.0% | 7.5% | /
CC(C)C(NC(=O)/C(=C\c1ccco1)NC(=O)c1ccco1)C(=O)O (configuration not stated) | -0.8% | ? | -13.8% | /
O=C(NC(Cc1ccccc1)C(=O)O)/C(=C/c1cccc([N+](=O)[O-])c1)NC(=O)c1ccco1 (configuration not stated) | 0.3% | -5.4% | 6.5% | /
O=C(CSc1ccc(Cl)cc1)OCc1nnc(-c2ccccc2)o1 | -4.3% | 3.3% | -1.1% | -8.7
CC(C)C(NC(=O)c1ccc(F)cc1)C(=O)Nc1cccnc1 (configuration not stated) | -0.2% | -2.8% | -9.1% | -28.9
CCOC(=O)c1nnc(-c2cccs2)nc1Oc1ccc(Cl)cc1 | -3.7% | -0.5% | -5.6% | 7.7
CCOC(=O)N1CCN(C(=O)c2oc(=O)c3ccccc3c2-c2ccc(C)cc2)CC1 | -12.6% | 0.7% | 2.9% | 2.5

New compounds follow:
SMILES | miR-21 FLuc | Rango-impB inh | Rango release inh | GLA inh pH 4.5
N#CCCN(C(=O)CSc1ccc2c(c1)OCCO2)c1ccccc1 | -4.3% | -0.9% | -7.5% | -2.3
Cc1ccccc1NC(=O)C1CCN(C2=NS(=O)(=O)c3ccccc32)CC1 | -0.7% | 4.6% | 17.9% | 6.3
CCN1CCN(C(=O)C2c3cc(OC)c(OC)cc3C(=O)N(C)C2c2ccc(SC)cc2)CC1 (configuration not stated) | -7.7% | 0.5% | 12.4% | 3.0
Cc1cc2[nH]c(=O)c(=O)[nH]c2cc1S(=O)(=O)N1CCC(C)CC1 | -0.9% | -2.7% | 6.2% | /
Cc1ccc(-c2nc3ncccc3o2)cc1NC(=O)c1cccnc1 | -8.9% | -0.8% | -9.0% | 0.3
Cc1ccc(S(=O)(=O)N(C)C)cc1NC(=O)c1cc(-c2ccco2)nc2ccccc12 | 0.9% | 1.5% | 1.1% | /
O=C(NCCc1nc2ccccc2[nH]1)c1cccc(Br)c1 | -7.2% | 0.0% | -8.2% | -9.5
CCCCN(C)C(=O)c1nc2ccccn2c1CN1CCSCC1 | -4.9% | -1.3% | 13.8% | 8.1
CC1(OC(=O)C2CCCC2)C(=O)C=C2C=C(c3ccsc3)N(Cc3ccccc3)C=C2C1=O (configuration not stated) | -0.9% | ? | -0.2% | 2.9&-11.5
COC(=O)[C@@]1(Cc2ccccc2)[C@H]2C(=O)N(Cc3ccccc3)C(=O)[C@H]2[C@H]2CN=C(SCc3ccccc3)N21 | / | -6.5% | -13.1% | /
